Bioassay records (PubChem BioAssay)
Tgondii IFNg – T. gondii growth inhibition with IFN-gamma, primary screen, cell-based | Toxoplasma gondii growth in IFN-gamma-treated host cells; active compounds read low; reference of the scale not given here | activity change, negative = inhibition, %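 (about 20 µM by stock and volumes)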 | 69,000 tested, 3.8% active;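 active = below -70%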;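 note: host cells are HeLa cells infected with Toxoplasma gondii; parasite growth read as luciferase light; one replicate is shown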
* hit, by the source's call; & = joins results of further samples. The list is partial; count on the stated rates, not on these rows.

SMILES	Tgondii IFNg
CN(C)C1CCN(C(=O)c2nc3c(s2)CCCN3Cc2ccccc2)C1 (stereo unspecified)	200.4
C=CCN1C(=O)CCC12CCC(NCc1nccs1)CC2 (stereo unspecified)	168.0
CN(C)c1ncnc2c1CCN(S(=O)(=O)c1cccs1)CC2	34.5
COc1ccccc1-c1noc(CCC(=O)Nc2ccc3c(c2)n(C)c(=O)n3C)n1	-1.7
O=C(C[C@@H]1CC[C@@H]2[C@H](COC[C@@H](O)CN2Cc2ccc(F)cc2)O1)NCCc1ccccc1	6.6
Cc1ccc2c(c1)N(CC(=O)N(C)Cc1ncc[nH]1)C(=O)CO2	-3.4
Cc1ccc(Cl)cc1NC(=O)Cn1c(=O)cc(C(=O)N2CCc3ccccc3C2)c2ccccc21	-32.4
Cc1ccc(S(=O)(=O)NCCc2csc(-c3ccc(Cl)cc3)n2)cc1C	-82.6*
CCCc1nc(C)c(CNC(=O)CC(=O)Nc2ccccc2C)s1	6.2
CCCN(CCC)S(=O)(=O)c1ccc(C(=O)O)cc1	16.6&-1.5&20.4
O=C1OCCN1CCn1cnc2sc3c(c2c1=O)CCNC3	32.0
COc1cccc(-c2ccc([C@H]3[C@H](CO)N4C(=O)CN(C(=O)c5cccnc5)C[C@@H]34)cc2)c1	-26.1
Cc1cc2occ(CC(=O)N3CCC(O)(CN(C)C)C3)c2cc1Cl (stereo unspecified)	-18.8
N#C[C@H]1[C@@H](c2ccccc2/C=C/c2ccccc2)[C@@H](CO)N1C(=O)Nc1ccccc1	-39.4
CCCCOc1ccc(-c2nnn(CC(=O)c3ccc(C)cc3)n2)cc1	-25.6
CN1CC(=O)N(c2ccccc2)CC12CCN(S(=O)(=O)Cc1ccccc1)C2 (stereo unspecified)	-33.6
CCC(=O)N1C[C@@H](C)[C@@H](OC)CN(C)C(=O)c2cc(NC(=O)Nc3ccc(Cl)cc3)ccc2OC[C@H]1C	223.0
Cn1nccc1-c1cc(C(=O)Nc2nc(-c3ccccn3)cs2)c2ccccc2n1	-100.9*
Cc1cccc(C(C(=O)N(C)Cc2snnc2C)N(C)C)c1 (stereo unspecified)	49.2
OCC1(Cc2ccccc2)CCCN(c2ncccc2Cl)C1 (stereo unspecified)	-44.4
CCc1nc(SCC(=O)NC(c2ccccc2)c2ccco2)n[nH]1 (stereo unspecified)	-0.7
O=C(Nc1ccccc1F)N1CCCCN2[C@H](C1)[C@@H](c1ccc(/C=C/c3ccccc3)cc1)[C@@H]2CO	-47.3
COc1ccc(C)cc1Nc1nc(-c2nnc(-c3ccccc3)o2)nc2ccccc12	-51.8
CCOC(=O)N1CCC2(CC1)OC(=O)C(C)=C2C(=O)NCCc1ccccc1	90.4
COc1ccc2oc(CNC(=O)CCNC(=O)c3ccccc3F)nc2c1	0.3
CC(=O)Nc1sc2c(c1C#N)CCc1ccccc1-2	-89.7*
O=C(CC1N=C2c3ccccc3N=C(SCc3ccccc3Cl)N2C1=O)NC1CCCCC1 (stereo unspecified)	-23.3
COC(=O)c1c(NCc2cccc(OC)c2)c2cccc(Cl)c2[nH]c1=O	-47.5
COc1ccc(CNC(=O)N(Cc2ccncc2)C2CCN(C)CC2)cc1	2.0
CC(C)Cn1cncc1CNC1CCN(c2ccc3c(c2)OCO3)CC1	-7.3
COc1c(F)ccc(-c2n[nH]c(Cc3ccccc3)n2)c1F	115.5
Cc1ccc(-c2nc(NCCc3cccnc3)ncc2-c2ccc(N)nc2)cc1	-51.0
CC(C)n1cnc2c1C(C(=O)Cc1ccncc1)N(Cc1cccnc1)CC2 (stereo unspecified)	13.6
C[C@@H]1CN([C@@H](C)CO)C(=O)c2ccccc2-c2ccccc2CO[C@@H]1CN(C)C(=O)Nc1cccc(C(F)(F)F)c1	-64.9
CCCc1ncc(-c2ccc(OCC)c(OCC)c2)[nH]1	-3.7
O=S(=O)(NCCc1csc(-c2ccc(F)cc2)n1)c1cccc(Cl)c1	-7.2
CN(CC1CCN(c2ccccc2)C1)C(=O)c1cc2ncccn2n1 (stereo unspecified)	-43.3
Cc1c(CN(C)Cc2cccc(C(C)(C)C)c2O)cnn1C	-93.1*
CN1CCC2(CC1)CN(C(=O)Nc1ccccc1)Cc1ccccc12	-2.8
CC12CCC3C(CCC4CC(O)CCC43C)C1CC=C2c1ccccc1 (stereo unspecified)	7.1
CCN1CCN(Cc2cc(C(=O)N3CCN(C4CCCC4)CC3)no2)CC1	-3.2
O=S(=O)(Oc1cccc(C(F)(F)F)c1)c1ccc(-c2cc(C(F)(F)F)on2)s1	-51.7
Clc1cnccc1CN1CCC(c2cc(Cc3ccccc3)[nH]n2)CC1	-27.4
C[C@@H]1CN([C@@H](C)CO)C(=O)c2cc(-c3cccc(C#N)c3)cnc2O[C@H]1CN(C)C(=O)C1CCOCC1	24.7
Cc1ccsc1CN1CCCC(OCc2cccnc2)C1 (stereo unspecified)	0.0
CC(C)c1ccc(NC(=O)Cn2ncc3c(N4CCN(c5ccccc5)CC4)ncnc32)cc1	-20.9
c1cc(CNc2ccc(N3CCCC3)cc2)ccn1	-23.4
CN(CCN1CCOCC1)C1CCN(S(=O)(=O)c2ccc3[nH]c(=O)ccc3c2)CC1	38.4

Compounds shown so far containing a thiophene ring, fused or not (five):
SMILES	Tgondii IFNg
CN(C)c1ncnc2c1CCN(S(=O)(=O)c1cccs1)CC2	34.5
O=C1OCCN1CCn1cnc2sc3c(c2c1=O)CCNC3	32.0
CC(=O)Nc1sc2c(c1C#N)CCc1ccccc1-2	-89.7*
O=S(=O)(Oc1cccc(C(F)(F)F)c1)c1ccc(-c2cc(C(F)(F)F)on2)s1	-51.7
Cc1ccsc1CN1CCCC(OCc2cccnc2)C1 (stereo unspecified)	0.0

Following part.
SMILES	Tgondii IFNg
CN(Cc1ccccc1C(F)(F)F)CC(O)CO (stereo unspecified)	-38.9
C=CCn1c(Sc2ccc(C)cc2)nc2c1c(=O)[nH]c(=O)n2C	-43.3
CCc1ccc(-c2noc(-c3c(O)c4cc(C)ccc4[nH]c3=O)n2)cc1	0.9
CCn1c(CNC(=O)c2cn[nH]c2-c2ccc(OC)cc2)nc2ccccc21	36.6
COc1cccc(CC2(CO)CCN(C(=O)C3(C)CCCCO3)CC2)c1 (stereo unspecified)	-4.8
CC12CCC(C(=O)N3CCCCC3)([C@H](Br)C1=O)C2(C)C (stereo partly specified)	0.4
COc1ccc(S(=O)(=O)Nc2cncc(C(=O)Nc3cc(C)ccc3C)c2)cc1OC	21.5
COc1ccccc1CNC(=O)c1nc(Nc2ccc(F)cc2)c2ccccc2n1	-18.8
C=CCN1CCc2c(nnn2CC2CC2)C1COCC1CC1 (stereo unspecified)	5.4
c1ccc(COCCCc2cnc[nH]2)cc1	12.3
O=C(c1ccncc1)N1CCCC2(C1)Nc1ccccc1NC2=NC1CCCC1 (stereo unspecified)	22.1
CCc1cnc(N2CCC3(CC2)[C@H]2CN(CCOC)C[C@H]2C(=O)N3C)nc1	-56.1

Retrieved by structure from above:
SMILES	Tgondii IFNg
CCn1c(CNC(=O)c2cn[nH]c2-c2ccc(OC)cc2)nc2ccccc21	36.6
O=C(c1ccncc1)N1CCCC2(C1)Nc1ccccc1NC2=NC1CCCC1 (stereo unspecified)	22.1

Remaining list, next part:
SMILES	Tgondii IFNg
N[C@@H]1CC[C@@H](NC(=O)C(=O)c2ccccc2)C1	-0.2
C=CCc1c(C)nc(N2CCSCC2)[nH]c1=O	-2.8
CCS(=O)(=O)Nc1ccc2c(c1)C(=O)N(C)C[C@@H](OC)[C@@H](C)CN(C(=O)c1ccc3c(c1)OCO3)[C@@H](C)CO2	138.4
O=C([C@H]1C[C@H]2CN(c3ncc(F)cn3)C[C@H]1O2)N1CCOCC1	33.7
Cc1ccc(CN2CCCn3c(nc(CN4CCCC4)cc3=O)C2)o1	2.4
Cn1c(=O)[nH]c(=O)c2[nH]c(N3CCOCC3)nc21	4.3
CCCNC(=O)N1C[C@@H](C)[C@H](OC)CN(C)C(=O)c2ccc(NC(=O)CC)cc2OC[C@H]1C	42.0
COCCN1Cc2cccc(C(=O)NC(C)c3cc4cc(Cl)ccc4o3)c2C1=O (stereo unspecified)	-17.5
O=C(C[C@@]12COC[C@H]1CN(c1ncccn1)C2)NCc1ccccn1	-0.3
O=C(CN1CCC(NC(=O)c2ccc(F)cc2)CC1)Nc1ccc2c(c1)CCC2	42.8
Cc1nsc(NC(=O)N2CCC(CN)CC2)n1	16.5
CC(C)(C)c1csc(CCNC(=O)c2cnn3c(-c4ccccc4)ccnc23)n1	-1.4

Quoted from the listing.
Cc1nsc(NC(=O)N2CCC(CN)CC2)n1 | Tgondii IFNg: 16.5
COCCN1Cc2cccc(C(=O)NC(C)c3cc4cc(Cl)ccc4o3)c2C1=O (stereo unspecified) | Tgondii IFNg: -17.5

Going on with the list.
SMILES	Tgondii IFNg
CCS(=O)(=O)N1CC[C@@]2(c3ccccc3)CN(C(=O)N(C)C)CC2C1 (stereo partly specified)	-6.0
O=C(C[C@H]1CC[C@@H]2[C@H](COC[C@H](O)CN2C(=O)c2ccccc2F)O1)NCc1ccc(F)cc1	20.3
O=C(O)c1cccc(-c2ccc(C(=O)N3CCC(Oc4cccnc4)CC3)cn2)c1	6.4
Cc1nc(-c2cc(C(=O)N3CCCCC3C)c3ccccn23)cn1C(C)C (stereo unspecified)	4.1
COc1nccnc1-c1cccc(Cl)c1Cl	-36.2
COc1ccccc1NC(=O)N[C@@H]1CC[C@H](CCNS(=O)(=O)c2ccc(Cl)cc2)O[C@@H]1CO	-45.1
COc1cccc(C(=O)NN2c3ccccc3CCc3ccccc32)c1	30.3
O=c1c2c3c(sc2ncn1CCc1n[nH]c2c1CCCC2)CNCC3	-2.8
Cc1cccc(OCC(O)Cn2c(N)nc3c2c(=O)n(C)c(=O)n3C)c1 (stereo unspecified)	7.1
CCN(CC)C1=C(Cl)C(=O)C(Cl)C12OCCO2 (stereo unspecified)	-5.6
Cc1ccsc1CNc1cccc(C(=O)N(C)Cc2snnc2C)c1	-4.5
CC1(C)CC(CC(=O)Nc2nccs2)(c2ccccc2)CCO1 (stereo unspecified)	-39.8
Cc1nc(C(C)C)ncc1C(=O)N1CCc2c(nc(N(C)C)[nH]c2=O)C1	0.7
Cc1oc(-c2ccc(C(=O)N(C)Cc3ccccc3)cc2)nc1CN1CCc2ccccc21	182.7
C[C@H]1CN([C@@H](C)CO)C(=O)Cc2cc(NS(=O)(=O)c3cccs3)ccc2O[C@@H]1CN(C)CC1CCCCC1	-12.6
Cc1cc2cc3c(cc2n2c(=O)n(Cc4ccccn4)nc12)OCO3	-44.7
CC(C)Cc1cc(C(=O)NCC(c2cccnc2)N2CCCC2)n(C)n1 (stereo unspecified)	-13.9
Cc1nn(C)c(C)c1NC(=O)c1ccccc1N	51.7
COC(=O)c1sccc1N/N=C1\C(=O)c2sccc2N(C)S1(=O)=O	121.5
CCc1cccc(NC(=O)c2c(O)c3cccnc3n(-c3cccc(F)c3)c2=O)c1	-96.6*
COc1ccc(OC)c(S(=O)(=O)NCCc2csc(-c3ccc(F)cc3)n2)c1	79.6
COc1ccccc1C#Cc1ccc([C@H]2[C@H]3CN(C(=O)C4CCC4)CCCCN3[C@H]2CO)cc1	-0.1
NC(N)=NC(N)=Nc1cccc(Cl)c1	16.6&9.9
COc1ccccc1-c1nc(C)c(-c2ccc(SCC(=O)OCc3ccccc3)nn2)s1	-0.2
O=C(c1ccncc1)N1C[C@H]2[C@@H](c3ccccc31)[C@H](CO)N2C(=O)CN1CCOCC1	4.8
Cc1nnc(-c2ccc(C(C)N3CCCCC3)cc2)s1 (stereo unspecified)	0.7
O=C(Nc1ccccc1F)N[C@@H]1CC[C@@H](CCNC(=O)C2CC2)O[C@H]1CO	-6.2
CCn1c(C)cc2c(c1=O)C(c1ccccc1)C(C(=O)OC)=C(N)O2 (stereo unspecified)	-12.1
COc1cccc(-c2ccc(C3[C@@H]4CN(S(=O)(=O)Cc5ccccc5)C[C@H]3N4)cc2)c1 (stereo partly specified)	-81.0*
CCN1C(=O)CCc2cc(NC(=O)c3ccc(OC(F)(F)F)cc3)ccc21	-26.2
Cc1nc(CCNC(=O)[C@H]2CCCN2S(=O)(=O)c2cccs2)cs1	-14.5
CCOc1ccc(-c2ccnc(CC3CCN(C)CC3)n2)cc1C(=O)O	0.8
O=C(Cc1ccccc1F)NCC1CCC(c2cncn2Cc2cccnc2)CC1 (stereo unspecified)	-2.4
CC(C)CCCC1CN(C(=O)c2cccc(-n3cnnc3)n2)CCO1 (stereo unspecified)	-1.5
COCC(=O)Nc1ccc2c(c1)OC[C@H](C)N(C)C[C@H](C)[C@H](OC)CN(C)C2=O	2.5
CCOc1ccc(Cc2nccc3cc(OCC)c(OCC)cc23)cc1OCC	-83.0*

2 entries from above in a different format.
Molecule: Cc1nnc(-c2ccc(C(C)N3CCCCC3)cc2)s1 (stereo unspecified)
  Tgondii IFNg = 0.7

Molecule: O=C(Nc1ccccc1F)N[C@@H]1CC[C@@H](CCNC(=O)C2CC2)O[C@H]1CO
  Tgondii IFNg = -6.2

The list goes on:
SMILES	Tgondii IFNg
CC(C)Cn1cncc1CN1CCOC(Cc2cccc(C(F)(F)F)c2)C1 (stereo unspecified)	-20.1
CC(C)n1cc(CN2CCCC(C(=O)c3ccc(-c4ccccc4)cc3)C2)cn1 (stereo unspecified)	2.6
COc1cccc(-n2c(=O)c(C(=O)NCCc3ccccc3)c(O)c3cccnc32)c1	37.7
O=C(Nc1ccc(-c2ccccc2)cc1)[C@H]1[C@H](CO)[C@H]2Cn3c(cccc3=O)[C@H]2N1CC1CCOCC1	2.8
COc1ccc(-c2ccccc2)cc1NS(=O)(=O)c1ccc2c(c1)CCC(=O)N2	-22.0
CC(=O)Nc1ccc(S(=O)(=O)N2CCN(CC(=O)NC3CCCC3)CC2)cc1	-7.1
CCn1c(=O)c(-c2nc(-c3ccccc3Br)no2)c(O)c2cc(F)ccc21	0.6
Cc1cccc(CC(CC(=O)O)C(=O)O)c1 (stereo unspecified)	2.5
O=C(C[C@@H]1C=C[C@H](NC(=O)C2CCC2)[C@H](CO)O1)NC1CCCCC1	59.6
Cc1nn(-c2ccccc2)c(C)c1Sc1ccccc1	0.7
Cc1ccc(CNC(=O)c2ccc3c(c2)C(c2ncn(C(C)C)n2)CN3C(=O)c2ccccc2)o1 (stereo unspecified)	-66.7
